Screening results: PubChem, Sanford-Burnham Center for Chemical Genomics
MT1-MMP reporter – inhibitors of MT1-MMP promoter transcription, cell-based, luciferase reporter, luminescence (AID 618); 87,000 tested, 0.62% active; calls from a first round at 10 µM; hits with a dose series show EC50 in µM; MT1-MMP promoter luciferase reporter cells, luminescence;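 active = over half of the reporter light lost at 10 µM or EC50 under 50 µM; inactive = the rest and hits that failed the dose series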;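 note: actives suppress MT1-MMP promoter-driven transcription so potencies describe inhibitors; HT1080 fibrosarcoma cells; overnight exposure; toxic or luciferase-blocking compounds were not removed from the actives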
Calls only; i = inactive. Not all compounds are listed; the hit share may differ from the screen's.

SMILES	MT1-MMP reporter
COC(=O)c1ccc(C(/C=C/[C@@H](C)C(=O)NCc2ccc(C)o2)NC(=O)OCc2ccccc2)cc1 (stereo not given in full)	i
O=C(OCc1cccc2ccccc12)C1CC(=O)N(c2ccccc2)C1 (stereo not given)	i
CCc1ccc(N=c2c([N+](=O)[O-])nn(-c3ccccc3)n2O)cc1	i
O=C(Nc1cccc(F)c1)N1CCN(C/C=C/c2ccccc2)CC1	i
CCC1(CC)N([O-])C(C)=C(c2ccccc2)[N+]1=O	i
NC(=O)c1c(NC(NC(=O)c2ccco2)C(=O)c2ccc(Cl)cc2)sc2c1CCCC2 (stereo not given)	i
C=CCSc1nccc(-c2cc(Cl)sc2Cl)n1	i
COC(=O)[C@@]1(Cc2ccc(OC)cc2)[C@H]2c3cc(C(=O)N4CCCC4)n(CCc4ccc(O)c(OC)c4)c3C[C@H]2CN1C(=O)c1ccccc1	i
Cn1c(=O)c2[nH]c(NCCCN3CCOCC3)nc2n(C)c1=O	i
CCCCNC(=O)CSc1nc2ccccc2c(=O)n1Cc1ccc2c(c1)OCO2	i
O=C(N[C@@H](Cc1ccccc1)C(=O)O)c1ccccc1	i
COc1cccc(N=c2oc3c(C)ncc(CO)c3cc2C(N)=O)c1	i
CCC1=C2CC[C@H]3C(=O)N(c4ccccc4)C(=O)[C@H]3[C@H]2[C@@]2(C)C(=NCC3CC3)OC(=O)N2C1=O	i
COc1ccc2c(c1[N+](=O)[O-])CCC/C2=N/OC(=O)c1cccc2ccccc12	i
CC(C)(C)c1ccc(Oc2cccc(C3CC(=O)C(C4NCCc5ccccc54)C(=O)C3n3cncn3)c2)cc1 (stereo not given)	i
C=CCNc1nc(Nc2ccc(-c3nc4ccccc4o3)cc2)nc(N2CCOCC2)n1	i
CC(=O)Nc1ccc(S(=O)(=O)N2CCc3ccccc3C2)cc1	i
COC(=O)Cn1c(C(=O)N2CCCC2)cc2c1C[C@H]1CN(C(=O)c3ccccc3)[C@@](Cc3ccc(F)cc3)(C(=O)OC)[C@@H]21	i
CCCc1nnc(NC(=O)Cn2c(=O)oc3cc(Br)ccc32)s1	i
CC(C)C(=O)Nc1cccc(C(=O)N2CCCCC2C)c1 (stereo not given)	i
COC(=O)c1cccc(C23CC4(C2)[C@H](CN(Cc2ccc(-c5ccccc5)cc2)[C@@H]4c2ccccc2)C3c2ccc(C(F)(F)F)cc2)c1 (stereo not given in full)	i
COC(=O)c1ccc(C(NC(=O)OCc2ccccc2)/C(C)=C/[C@@H](C)C(=O)NCCO)cc1 (stereo not given in full)	i
CC(=O)N1CC=CC1(CC(C)C)C(=O)NCc1ccc(C)o1 (stereo not given)	i
CCN1N=C(c2ccccc2)Cn2c1nc1ccccc12	i
COc1c2ccoc2nc2c(OC)cccc12	i
Cc1ccc(-c2nnc(SCC(=O)n3c4c(c5ccccc53)CCCC4)o2)cc1	i
CC1CCCN(Cc2cccc(Oc3ccccc3)c2)C1 (stereo not given)	i
CC(CNC(=O)C1CCCCC1C(=O)O)c1ccccc1 (stereo not given)	i
CCOC(=O)c1ccc(N2C(=O)CC(N3CCC(O)(c4ccc(Br)cc4)CC3)C2=O)cc1 (stereo not given)	i
COC(=O)[C@@]1(Cc2ccccc2)[C@H]2c3cc(C(=O)N4CCCC4)n(CCN4CCNC4=O)c3C[C@H]2CN1C(=O)c1ccccc1	i
Cc1nn(CC(=O)NCc2ccc(OC(C)C)cc2)c(=O)c2cc3occc3n12	i
CCC/C=C(\CCC)C(NS(=O)(=O)c1ccccc1)c1ccc(C(F)(F)F)cc1 (stereo not given)	i
CCOC(=O)C1=C(C)N(CCCC(=O)O)C(=O)NC1c1ccc(C(F)(F)F)cc1 (stereo not given)	i
Cc1ccc(/C=c2\sc3n(c2=O)CN(c2cccc(Br)c2)CN=3)o1	i
Cc1ccc(C(=C2C3C=CC2C2C(=O)NC(=O)C32)c2ccc(C)cc2)cc1 (stereo not given)	i
O=C(Nc1c(F)cccc1F)c1cnc(N2CCN(c3ccccn3)CC2)c2ccccc12	i
O=C1OCCC1Sc1nnc(-c2cccc(Br)c2)o1 (stereo not given)	i
CCc1nnc(NC(=O)c2cccnc2)s1	i
CCC1=C(C)N(CCCC(=O)O)C(=O)NC1c1cccc(Cl)c1Cl (stereo not given)	i
CCC(C)NS(=O)(=O)c1ccc(NC(=O)CCC2CCCCC2)cc1 (stereo not given)	i

Some of the entries so far, comma-delimited:
Molecule,MT1-MMP reporter
CCOC(=O)c1ccc(N2C(=O)CC(N3CCC(O)(c4ccc(Br)cc4)CC3)C2=O)cc1 (stereo not given),i
COC(=O)[C@@]1(Cc2ccccc2)[C@H]2c3cc(C(=O)N4CCCC4)n(CCN4CCNC4=O)c3C[C@H]2CN1C(=O)c1ccccc1,i
Cc1nn(CC(=O)NCc2ccc(OC(C)C)cc2)c(=O)c2cc3occc3n12,i
CCC/C=C(\CCC)C(NS(=O)(=O)c1ccccc1)c1ccc(C(F)(F)F)cc1 (stereo not given),i
CCOC(=O)C1=C(C)N(CCCC(=O)O)C(=O)NC1c1ccc(C(F)(F)F)cc1 (stereo not given),i

Following part:
SMILES	MT1-MMP reporter
COc1ccc(Nc2ncccc2C(=O)NCc2ccccc2)cc1	i
O=C(CC1NC(=O)NC1=O)Nc1ccc(Cl)cc1 (stereo not given)	i
Cc1ccc(NC(=O)CC2COc3ccccc3O2)cc1 (stereo not given)	i
O=C(c1ccncc1)N1CCN(c2ccc(F)cc2)CC1	i
COC(=O)C1=C(C)NC(=O)/C1=C\c1cc(C)n(-c2cc(C)cc(C)c2)c1C	i
COC(=O)[C@@H]1C[C@H]2CC[C@H](O)C[C@H]2N1Cc1ccc(C(F)(F)F)cc1	i
CCCCc1cc(=O)oc2cc(C)cc(O)c12	i
COC(=O)c1ccc(NC(=O)CSc2nnc(COc3c(C)cccc3C)o2)cc1	i
CCCCOc1ccc(Cl)cc1CSc1n[nH]c(C)n1	i
Clc1ccc(C(c2ccccc2)N2CCNCC2)cc1 (stereo not given)	i
O=c1cccc2n1Cc1cc3ccccc3nc1-2	i
COC(=O)C1=C(CCc2ccccc2)NC(=O)NC1c1ccc(Cl)cc1 (stereo not given)	i
Cc1cccc(NC(=O)c2sccc2-n2cccc2)c1C	i
CC[Si](CC)(CC)c1c2c(nc3ccc(OC)cc13)-c1cccc(=O)n1C2	i
CCCCCNC(=O)c1ccc2c(=O)n(CCOC)c(=O)[nH]c2c1	i
O=C(Cc1cccc2ccccc12)N1CCCc2ccccc21	i
CCOc1ccc(N(Cc2cc3ccc(C)cc3[nH]c2=O)S(C)(=O)=O)cc1	i
CCC(CC)C(=O)NCCN1CCN(C(=O)C(CC)CC)CC1	i
Cc1ccc(-n2c(N)c(C(=O)NCc3ccco3)sc2=S)cc1	i
O=C(NCC1COc2ccccc2O1)C1C2C=CC3(CN(Cc4cccs4)C(=O)C13)O2 (stereo not given)	i

3 entries from above, field by field.
CCN1N=C(c2ccccc2)Cn2c1nc1ccccc12
- MT1-MMP reporter: i
CCC1=C2CC[C@H]3C(=O)N(c4ccccc4)C(=O)[C@H]3[C@H]2[C@@]2(C)C(=NCC3CC3)OC(=O)N2C1=O
- MT1-MMP reporter: i
CC(=O)N1CC=CC1(CC(C)C)C(=O)NCc1ccc(C)o1 (stereo not given)
- MT1-MMP reporter: i

New compounds follow
SMILES	MT1-MMP reporter
COC(=O)c1cc(NC(=O)CSc2nncn2C)cc(C(=O)OC)c1	i
CC1(C(=O)O)COC(c2ccc([N+](=O)[O-])cc2)OC1 (stereo not given)	i
CCN1CCN(C(=O)CN(CC)S(=O)(=O)c2ccc(Cl)cc2)CC1	i
COc1ccccc1CCNC(=O)c1cnccn1	i
Cc1cccc(NC(=S)N2CCC(N(C)CC3CCCO3)CC2)c1C (stereo not given)	i
CCOc1ccc(NC(=O)Cn2nnc(C(=O)NCc3ccco3)c2N)cc1	i
O=C(c1cccs1)n1nc(-c2ccccc2)nc1NCc1ccc(F)cc1	i
CC1(C)CC(CC(=O)NC(=S)Nc2ccc([N+](=O)[O-])cc2)C(=O)O1 (stereo not given)	i
COC(=O)c1ccc(C(NC(=O)OCc2ccccc2)/C(C)=C/[C@@H](C)C(=O)NCc2nc3ccccc3s2)cc1 (stereo not given in full)	i
Clc1ccc(OCCN2CCOCC2)cc1Cl	i
CCOC(=O)/C(=N/Nc1ccc(Cl)cc1)S(=O)(=O)c1ccccc1	i
CCOC(=O)c1cnn(-c2ccc(Cl)cc2)c1C1CCN(C(=O)OC(C)(C)C)CC1	i
CC1=C(C(=O)Nc2ccccc2C)C(c2ccc(C)o2)n2c(s/c(=C/c3ccccc3)c2=O)=N1 (stereo not given)	i
Cc1cnc(NC(=O)CSc2nc3ccccc3s2)s1	i
Cc1ccc(C(C(=O)NC2CCCCC2)N2CCN(C(=O)c3ccco3)CC2)cc1 (stereo not given)	i
Cc1cccc(-c2nc(CSCC(=O)NCc3cccs3)c(C)o2)c1	i
C[C@@H](C(=O)Nc1ccc2ccccc2c1)[C@@H]1C[C@@]1(C)[C@@H](NC(=O)OCc1ccccc1)c1ccccc1	i
FC(F)(F)c1ccc(CN2C[C@@H]3C(c4ccc(Cl)nc4)C4(c5cccnc5)CC3(C4)[C@H]2c2ccccc2)cc1 (stereo not given in full)	i
CC1=C(C(=O)OCc2ccccc2)C(c2cccs2)NC(=O)N1CCCC(=O)O (stereo not given)	i
CCC(=O)N1CCc2cc(Br)cc(S(=O)(=O)CCC(=O)NCCOC)c21	i

Reformatted as labelled records: entries from further up
COc1ccccc1CCNC(=O)c1cnccn1
  MT1-MMP reporter: i

COC(=O)c1ccc(C(NC(=O)OCc2ccccc2)/C(C)=C/[C@@H](C)C(=O)NCc2nc3ccccc3s2)cc1 (stereo not given in full)
  MT1-MMP reporter: i

CCN1CCN(C(=O)CN(CC)S(=O)(=O)c2ccc(Cl)cc2)CC1
  MT1-MMP reporter: i

(further entries)
SMILES	MT1-MMP reporter
Cn1c2ccccc2c2c(C(=O)N3CCN(C(=O)c4ccco4)CC3)cn(C3CCCCC3)c(=O)c21	i
COC(=O)[C@@]1(Cc2ccc(F)cc2)[C@@H]2[C@@H](CC(=O)[C@H]2CC(=O)C(=O)N(C)C)CN1C(=O)c1ccccc1	i
CC1(C)COC(c2cccn2Cc2ccc(F)cc2Cl)=N1	i
CCN(C(C)=O)c1cccc2ccccc12	i
CCCCCC1=C2CNC(CC(C)C)(C(=O)OC)C=C2C(C)C1=O (stereo not given)	i
Cc1[nH]n(-c2ccc([N+](=O)[O-])cc2)c(=O)c1C=NCCN1CCN(C(=O)c2ccccc2F)CC1	i
CC12CC3CC(C)(C1)CC(C(=O)NC1=NCCS1)(C3)C2	i
COC(=O)[C@@]1(Cc2ccc(F)cc2)[C@H]2c3cc(C(=O)N(C)C)n(CCCNc4ncc(C(F)(F)F)cc4Cl)c3C[C@H]2CN1C(=O)c1ccccc1	i
O=C(CCS(=O)(=O)c1cccc2nsnc12)N1CCN(c2ccccc2F)CC1	i
CCC/C=C(\CCC)C(NS(=O)(=O)c1ccc(-c2ccccc2)cc1)c1ccc(C(=O)OC)cc1 (stereo not given)	i
Cc1ccc(/C(O)=C2/C(=O)C(=O)OC2c2ccc(Cl)cc2)cc1 (stereo not given)	i
CC(=O)Nc1ccc(N2C(=O)CSC2c2c(F)cccc2Cl)cc1 (stereo not given)	i
COc1c2c(nc3ccccc13)OC(C(C)(O)CO)C2 (stereo not given)	i
CCOC(=O)C(CC)n1nc(C)n2c(cc3occc32)c1=O (stereo not given)	i
NNC(=O)Cc1cn(-c2ncc(C(F)(F)F)cc2Cl)c2ccccc12	i
CC(C)Oc1cccc(-c2cc(C(=O)N3CCN(c4ncccn4)CC3)c3ccccc3n2)c1	i
CCc1cc2c(=O)c(-c3nc4ccccc4n3C)c(COCC(=O)O)oc2cc1OC(=O)C(C)(C)C	i
Cc1ccc(N(C)S(=O)(=O)c2ccc(C)cc2)cc1	i
COC(=O)N1CC=CC1(C)C(=O)NCCN1CCOCC1 (stereo not given)	i
Cc1ccc(S(=O)(=O)n2cc(-c3ccccc3)c(N)n2)cc1	i
CCC1=C(OC(=O)N(CC)CC)N2C(=O)OC(=NCc3ccccc3)[C@]2(C)[C@H]2C1=CC[C@H]1C(=O)N(CC(=O)OC)C(=O)[C@H]12	i
COCCNC(=O)[C@H](C)/C=C/C(NC(=O)OCc1ccccc1)c1ccc(C(=O)OC)cc1 (stereo not given in full)	i
COc1cccc(CN2C(=O)CCC2(C)C(=O)NC2CCCC2)c1 (stereo not given)	i
COC(=O)C(C)(C)NC(=O)c1cccs1	i
CC(C)(C)CNC(CO)C12CC3CC(CC(C3)C1)C2 (stereo not given)	i
O=C(CCc1ccccc1)Nc1ccc(F)cc1F	i
Cc1cc(NC(=O)/C=C/c2ccccc2)no1	i
O=C(CNS(=O)(=O)c1ccc(Br)cc1)N1CCOCC1	i
O=C(c1ccccc1)c1ccc(OCCn2cnc3ccccc3c2=O)cc1	i

A section taken from the entries so far, for reference:
SMILES	MT1-MMP reporter
Cc1ccc(C(=C2C3C=CC2C2C(=O)NC(=O)C32)c2ccc(C)cc2)cc1 (stereo not given)	i
O=C(Nc1c(F)cccc1F)c1cnc(N2CCN(c3ccccn3)CC2)c2ccccc12	i
O=C1OCCC1Sc1nnc(-c2cccc(Br)c2)o1 (stereo not given)	i
CCc1nnc(NC(=O)c2cccnc2)s1	i
CCC1=C(C)N(CCCC(=O)O)C(=O)NC1c1cccc(Cl)c1Cl (stereo not given)	i
CCC(C)NS(=O)(=O)c1ccc(NC(=O)CCC2CCCCC2)cc1 (stereo not given)	i
COc1ccc(Nc2ncccc2C(=O)NCc2ccccc2)cc1	i
